Screens: PubChem BioAssay, several laboratories
PABP FP inh: blocks human PABP binding to poly(A) RNA | P11940 | fluorescence polarization | inhibition, % at 35 µM | 290,000 compounds, 1% hits;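 active means 50% or more with normal probe brightness, or confirmed in later tests; inconclusive means above 50% with abnormal brightness, or retests that disagree; inactive means below 50% or failed in later tests; about a fifth of its hits are not listed in these tables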;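 further: calls also rest on retests at 20 µM and on dose response follow-up; controls were probe without protein and protein plus probe with vehicle; some compounds called inactive have numbers as strong as hits; many hits fall short of the cut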
Target sequence (P11940 whole entry, looked up): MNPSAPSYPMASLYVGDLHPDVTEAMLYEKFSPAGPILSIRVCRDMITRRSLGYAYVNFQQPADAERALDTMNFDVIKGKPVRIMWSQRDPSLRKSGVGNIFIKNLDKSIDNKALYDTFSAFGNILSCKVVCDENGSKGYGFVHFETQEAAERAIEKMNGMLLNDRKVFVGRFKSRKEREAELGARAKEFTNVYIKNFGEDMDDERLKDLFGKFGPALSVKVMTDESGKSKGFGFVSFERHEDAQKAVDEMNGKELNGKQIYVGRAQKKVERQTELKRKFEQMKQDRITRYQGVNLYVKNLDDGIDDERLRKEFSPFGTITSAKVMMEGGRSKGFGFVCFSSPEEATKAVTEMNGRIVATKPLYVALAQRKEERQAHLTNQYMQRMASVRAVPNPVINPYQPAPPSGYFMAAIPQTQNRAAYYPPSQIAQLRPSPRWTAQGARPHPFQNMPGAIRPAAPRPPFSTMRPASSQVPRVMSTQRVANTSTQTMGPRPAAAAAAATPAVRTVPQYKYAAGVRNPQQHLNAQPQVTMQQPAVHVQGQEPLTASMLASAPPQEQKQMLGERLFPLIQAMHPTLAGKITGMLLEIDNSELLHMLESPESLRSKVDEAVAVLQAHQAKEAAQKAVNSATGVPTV
eIF4H FP inh: inhibitors of RNA binding by human eIF4H | Q15056 | eIF4H fluorescence polarization binding assay | inhibition, % at 35 µM | 290,000 compounds, 0.94% hits;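 active means 50% or more with normal probe brightness, or confirmed in later tests; inconclusive means above 50% with abnormal brightness, or retests that disagree; inactive means below 50% or failed in later tests; about a fifth of its hits are not listed in these tables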;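 further: calls also rest on retests at 20 µM and on dose response follow-up; 0% = protein and probe with vehicle and 100% = probe without protein; strong numbers were not always called active; many hits fall short of the cut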
Env fusion inh: inhibitors of HIV Env-mediated cell fusion; inhibition, % at 12.3 µM; 360,000 compounds, 1.1% hits; HeLa-JRFL Env/CEM21 cell fusion, luciferase; AID 651610;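 active means mean replicate inhibition score of at least 50 and every replicate individually at or above 50; inconclusive means only one of the two criteria met; inactive means mean below 50 and not all replicates reaching 50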;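 further: 0% = plate neutral controls and 100% = maraviroc near 300 nM; one replicate is shown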
Rce1 inhib: yeast Ras-converting enzyme inhibition | 290,000 compounds, 0.27% hits | calls only | AID 2563 | Q03530 | yeast membranes, quenched prenylated peptide cleavage fluorescence;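 active means fall in fluorescence gain of 50% or more versus controls, with final raw signal at or below 3038400; inconclusive means same 50% fall but final raw signal above 3038400; inactive means fall in fluorescence gain under 50%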;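 further: plate controls were neutral control wells for no effect and wells lacking membranes for full effect; tested at 10 µM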
Target sequence (Q03530 whole entry, looked up): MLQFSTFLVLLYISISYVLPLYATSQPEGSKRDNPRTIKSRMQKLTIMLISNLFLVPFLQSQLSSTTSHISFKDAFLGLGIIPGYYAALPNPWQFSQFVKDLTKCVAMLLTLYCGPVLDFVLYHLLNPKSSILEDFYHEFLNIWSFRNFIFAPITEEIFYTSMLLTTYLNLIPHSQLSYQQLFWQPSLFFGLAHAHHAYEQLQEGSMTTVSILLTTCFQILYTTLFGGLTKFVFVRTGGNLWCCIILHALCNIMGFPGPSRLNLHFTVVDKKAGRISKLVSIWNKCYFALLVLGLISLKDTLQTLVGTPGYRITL
CSC inhib: blocks cancer stem cells | cancer stem cell-like cells viability, luminescence | inhibition, % at 7.5 µM | 300,000 compounds, 1.1% hits;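 active means mean at 75% or more and at least half the replicates too; inconclusive means mean and replicates disagree; tested in HMLE shEcad cells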;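 further: 0% = median of negative and 100% = median of positive control wells; the first replicate is given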
UUG fidelity: yeast start codon fidelity modulation | S. cerevisiae UUG-firefly luciferase reporter, luminescence/redox ratio | activity score, % at 18.7 µM | 350,000 compounds, 0.13% hits | AID 602363;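 active means replicate mean at a twofold rise or more, about +100% in these data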;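 further: firefly luciferase made from a UUG start codon reports start codon fidelity; reporter light over untreated wells divided by growth signal over untreated wells; some hits fall short of that in this replicate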
MT1-MMP act inh: blocks activation of human MT1-MMP | P50281 | HT1080 RFP-PRO-GFP cells, GFP/RFP ratio fluorescence, overnight; percent of plate control window, DMSO zero | GFP/RFP ratio change, % at 20 µM | 360,000 compounds, 0.061% hits | AID 651647;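 active means GFP/RFP ratio change of at least 30% with cell ATP level not reduced by more than half and red fluorescence within 50% of control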; further: strong numbers were not always called active
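Assay system: RFP-PRO-GFP reporter HT1080 cells; read-out basis: GFP/RFP fluorescence ratio; benchmarks: DMSO wells and RFP-L50D-GFP cells; doses: 20 µM single dose, 1% DMSO; schedule: overnight cell settling, then overnight compound exposure, 37 °C, 5% CO2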
MT1-MMP act inh RFP: recorded beside MT1-MMP act inh, whose call it bears; RFP signal change, %; measured here: RFP expression control read;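 0 = vehicle wells; hits needed this value within 50% of zero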
Active calls of the source: *; i = inactive; ? = inconclusive; nt = no result given. These rows are one share of the data, so the mix of outcomes need not match the whole.

SMILES	PABP FP inh	eIF4H FP inh	Env fusion inh	Rce1 inhib	CSC inhib	UUG fidelity	MT1-MMP act inh	MT1-MMP act inh RFP
O=C(O)c1ccc(C(=O)C(=O)c2ccccc2)cc1	-4	-9	11	i	nt	1	-1	1
Cc1cc(C(=O)N/N=C2\CCCC(=O)C2)c(C)o1	nt	nt	-2	nt	nt	-18	5	3
COCCn1c(=O)[nH]c2cc(C(=O)NC3CCCCCC3)ccc2c1=O	-1	-5	12	i	-1	-17	0	2
O=C(/C=C/c1ccc(Cl)c([N+](=O)[O-])c1)c1cccnc1	6	-17	-26	i	?	-5	6	0
O=C(CN1C(=O)NC2(CCCC2)C1=O)N1CCN(S(=O)(=O)c2ccccc2[N+](=O)[O-])CC1	nt	nt	-6	i	-15	-32	-1	3
CN1CCN(NC(=O)c2ccc(S(=O)(=O)N3CC4(C)CC3CC(C)(C)C4)cc2)CC1 (stereo unspecified)	4	-5	13	i	9	nt	-1	-1
CCN1CCN(c2cc3c(cc2F)c(=O)c(S(=O)(=O)c2ccccc2)cn3C)CC1	-6	-4	9	i	nt	-14	0	3
Cc1ccc(C(=O)NCC(=O)OCC(=O)N(CC(C)C)c2c(N)n(Cc3ccccc3)c(=O)[nH]c2=O)cc1C	nt	nt	4	i	-7	1	4	2
COc1ccc2c(c1)c(=O)oc1cc(O)ccc12	2	5	nt	i	-12	-11	0	-1
O=C(CSc1nnc(COc2ccc(Cl)cc2)o1)N1c2ccccc2CCc2ccccc21	4	-9	nt	i	19	nt	-15	-25
Cc1[nH]c2ccccc2c1C(=O)C(=O)N1CCN(C(=O)c2ccco2)CC1	2	3	-3	i	-17	nt	-5	-2
Cc1cc(CNC(=O)COc2ccccc2F)c2ccccc2n1	-5	3	30	i	-2	nt	2	-7
O=C1c2cccc3cccc(c23)C(=O)N1OS(=O)(=O)c1ccc(Br)cc1	-1	0	2	i	-1	nt	5	7
COc1ccccc1C/C(N)=N/O	-5	-5	7	i	-8	-18	0	2
O=C(Cc1ccc(O)cc1)NCCNC(=S)NCc1ccccc1	-13	-11	5	i	-2	nt	1	3
C=CCSC1=N/C(=C\c2ccsc2)C(=O)S1	9	1	nt	i	-6	-23	-2	2
Fc1cccc(NC(=S)Nc2cccnc2)c1	-7	0	16	i	-8	-10	2	6
N#C/C(=N\Nc1ccccc1)C(=N)N1CCOCC1	-2	-3	-14	i	-3	nt	-2	1
Cc1ccc(-c2nc(=S)c3c(n2Cc2ccco2)CCCC3)cc1	12	15	nt	nt	nt	-3	-1	3
O=C(Cc1ccc(Cl)cc1)Nc1ccc(N2CCCC2)cc1	5	-4	nt	i	-2	-14	3	-3
CCN1C(=O)c2cccc3c(S(=O)(=O)Nc4ccncc4)ccc1c23	2	-6	nt	i	-2	-16	1	0
CN1CCN(C(c2ccc(C(F)(F)F)cc2)c2cc(Cl)c3cccnc3c2O)CC1 (stereo unspecified)	-5	3	5	i	110*	nt	nt	nt
COc1ccccc1C(=O)Nc1nnc(S(=O)(=O)N2CCOCC2)s1	nt	nt	-2	i	15	-15	-1	2
NC1=NC2(CCCCC2)n2c(nc3ccccc32)N1	5	-15	nt	i	-8	-12	4	2
COc1ccccc1NC(=O)c1oc2ccccc2c1NC(=O)c1ccco1	-11	0	-28	i	16	-1	1	-1

Going on with the list.
SMILES	PABP FP inh	eIF4H FP inh	Env fusion inh	Rce1 inhib	CSC inhib	UUG fidelity	MT1-MMP act inh	MT1-MMP act inh RFP
O=C(CN1CCN(C(=O)C2CCCO2)CC1)Nc1ccc(Cl)cc1 (stereo unspecified)	-1	-14	nt	i	15	1	-2	1
COc1cccc(C2C3=C(N=c4s/c(=C\c5ccc(O)cc5)c(=O)n42)c2ccccc2CC3)c1OC (stereo unspecified)	-18	39	-11	i	1	nt	-9	1
O=C(CSc1nc2ccc([N+](=O)[O-])cc2[nH]1)NC1CCCCC1	3	-9	nt	i	8	nt	-2	-9
O=C(CNC(=O)c1ccccc1)OC(C(=O)O)c1ccc(F)cc1 (stereo unspecified)	nt	nt	13	nt	nt	-8	-1	0
O=C(NC(Cc1ccccc1)C(=O)Oc1ccc2c(C(F)(F)F)cc(=O)oc2c1)OCc1ccccc1 (stereo unspecified)	nt	nt	nt	i	-6	nt	-32	-1
COc1cc(C(=O)NCCC(=O)NCCN2CCCCCC2)cc(OC)c1OC	22	17	12	i	nt	-13	3	1
COc1ccc(C(C(O)C(=O)c2c[nH]c3ccccc23)N2CCN(c3ccc(OC)cc3)CC2)cc1 (stereo unspecified)	-2	-9	-46	i	-4	4	5	1
COc1ccccc1OCCCCOc1ccccc1C(C)=O	26	-3	4	i	8	nt	-1	-6
O=C(COc1ccccc1Cc1ccccc1)NCCCN1CCOCC1	0	-3	15	i	-4	-3	2	3
CCn1ccnc1CN(C)C(=O)CCc1nnc(CCCc2ccccc2)o1	-9	-8	3	i	-9	nt	4	1
Cc1ccc(CCC(=O)Nc2ccc(Cl)cc2)o1	-4	-4	-40	i	14	-4	-1	2
COc1ccc(S(=O)(=O)N2CCN(C(=O)c3cccs3)CC2)cc1	1	0	nt	i	-5	6	2	3
CCOC(=O)CSC1=C(C#N)C(c2ccc(F)cc2)C(C(C)=O)=C(C)N1 (stereo unspecified)	0	-10	nt	i	-5	nt	4	-4
Brc1ccc2c(c1)C(c1cccs1)=NNC(c1cccnc1)=N2	-8	-9	-42	i	-3	-2	0	-2
CCCC(=O)Nc1nc2ccc(NC(=O)c3ccccc3F)cc2s1	-5	1	-117	i	39	-14	-8	-16
Cc1cc(C)n(C(=O)Cc2cn3ccsc3n2)n1	8	-9	nt	i	-2	-10	0	6
CC1CC(=O)C2=C(C1)Nc1nc3ccccc3n1C2c1cccnc1 (stereo unspecified)	-2	-3	-12	i	25	nt	3	1
Cc1ccc(N(CC#N)C(=O)CS(=O)(=O)c2cccc([N+](=O)[O-])c2)cc1	9	3	10	i	-9	-14	8	3
CCN1C(=O)c2ccccc2S(=O)c2ccc(C(=O)NCCN(CC(C)C)CC(C)C)cc21 (stereo unspecified)	-7	1	12	i	-6	6	-1	3
c1ccc2c(c1)nnn2-c1ccncc1	nt	nt	18	nt	nt	-4	-6	-4
CN1CCN(Cc2c(O)ccc3cc(-c4ccccn4)c(=O)oc23)CC1	11	26	9	nt	0	-23	-6	-4
CC(=O)N1c2ccccc2C(=O)C1N(C)c1ccc(C)cc1 (stereo unspecified)	4	-5	-18	i	-15	-13	2	10
O=C(Nc1ccnn1C1CCN(Cc2c[nH]c3ccccc23)CC1)c1ccccc1	-7	-13	-4	i	2	7	-1	4
CCn1c(SCC(=O)OC(C)C)nnc1-c1ccccc1OC	1	-4	-8	i	-16	nt	-3	0
O=C(CCS(=O)(=O)c1ccccc1)NCc1ccccc1	-5	-10	nt	i	-6	-8	-8	1

Further structures follow:
SMILES	PABP FP inh	eIF4H FP inh	Env fusion inh	Rce1 inhib	CSC inhib	UUG fidelity	MT1-MMP act inh	MT1-MMP act inh RFP
CSc1nnc(-c2cc3ccccc3cc2O)n1C	0	-10	nt	i	-7	-17	2	-2
Nn1c(CSc2nc3ccccc3o2)nnc1CSc1nc2ccccc2o1	-10	5	-45	nt	-4	-45	0	3
CCOC(=O)N1CCN(CCC(=O)Nc2cc([N+](=O)[O-])ccc2OC)CC1	-4	10	10	i	-30	nt	2	1
CSC1=C(C#N)C(=O)NC(c2ccc(Cl)cc2)S1 (stereo unspecified)	-10	-3	19	i	7	12	0	1
CCCCC(=O)NC(c1ccc(Cl)cc1)c1ccc2cccnc2c1O (stereo unspecified)	nt	nt	-26	i	153*	3	-7	-13
Cc1cc2cc(CNS(=O)(=O)c3ccc4ccccc4c3)ccc2n1C	14	29	32	i	-10	-25	45*	47*
CCOc1ccc([N+](=O)[O-])c(N)c1	3	-11	4	i	-1	nt	-1	0
Cc1cccc(OCC(=O)N/N=C/c2ccccc2C(=O)O)c1	-12	-5	-10	i	-3	nt	8	3
COc1ccccc1OCC(=O)N/N=C(\C)c1ccc2ccccc2c1	nt	nt	-5	nt	nt	-4	4	0
CC(=O)Nc1ccc(C2=NN(c3ccccc3)C(c3ccccc3)C2)cc1 (stereo unspecified)	6	11	-11	i	59	0	-6	-3
COC(=O)N1C(=O)[C@@](c2ccccc2)(C2CCCC2)N1C(=O)OC	-4	1	nt	i	22	-13	-3	4
Cc1cnc(NC(=O)c2ccc(F)c(S(=O)(=O)N3CCOCC3)c2)s1	nt	nt	-20	nt	nt	-19	12	-7
O=C(Nc1nnc([C@H]2C[C@H](O)[C@@H](CO)O2)s1)c1cccc(Cl)c1	nt	nt	18	nt	nt	3	-3	4
COc1ccc2nc(NC(=O)C(NS(=O)(=O)c3cccs3)C(C)C)sc2c1 (stereo unspecified)	2	0	nt	i	-3	nt	-4	-6
COc1ccccc1/C=C/CN1CCC(Oc2ccc(C(=O)N3CCCC3)cc2)CC1	-7	8	-1	i	7	-2	3	-3
CCC(C)[C@H](NC(=O)C1CC(=O)N(c2ccc(OC)cc2)C1)C(=O)NC1CCCC1 (stereo partly specified)	0	-11	-8	i	3	-18	0	-1
CN(CC(=O)Nc1cccc(S(=O)(=O)N2CCCCC2)c1)Cc1ccc(F)cc1	nt	nt	nt	nt	5	-8	5	-12
COc1cccc(-c2csc(NC(C)=O)n2)c1	6	-5	nt	i	11	-19	2	0
O=S(=O)(c1cccc(-c2nnc(SCc3ccc(Cl)cc3)o2)c1)N1CCCCC1	-4	2	nt	i	22	-1	-1	-5
CC(C)Oc1ccc(C(=O)NCC(=O)Nc2ccc3c(c2)CCC3)cc1	nt	nt	-6	nt	-6	-9	-1	-3
CCS(=O)(=O)N1CCN(C(=O)c2cccs2)CC1	-1	-4	-29	i	-7	-11	-4	4
CCOc1ccccc1NC(=S)N(Cc1cc2ccc(C)cc2[nH]c1=O)CC1CCCN1CC (stereo unspecified)	6	7	4	i	-7	nt	6	7
CC1CCCN(C(=O)c2cccc(S(=O)(=O)Nc3cc(C(F)(F)F)ccc3Cl)c2)C1 (stereo unspecified)	14	-6	23	i	15	5	-4	-4
COc1ccccc1CNC(=O)c1cc(-c2ccccc2)nn1Cc1cc(C)no1	nt	nt	4	i	-7	-8	4	-6
CC(C)N(C(=O)[C@H]1C[C@H](CC(=O)NC(C)(C)C)C(=O)N2CCc3c([nH]c4ccc(Cl)cc34)[C@]12C)C(C)C	nt	nt	12	nt	nt	7	-3	-16

Other results
SMILES	PABP FP inh	eIF4H FP inh	Env fusion inh	Rce1 inhib	CSC inhib	UUG fidelity	MT1-MMP act inh	MT1-MMP act inh RFP
CC1(C)CC(=O)CC2(C1)NCC(c1ccccc1Cl)c1c2[nH]c2ccccc12 (stereo unspecified)	-6	-1	-14	i	-14	-16	-4	-10
COC(=O)C1=C(C)N(CCc2ccccc2)C(=O)/C1=C\c1ccco1	-8	16	-20	i	3	nt	1	0
O=C(CCc1ccccc1)N1CCN(S(=O)(=O)c2cccs2)CC1	1	-5	27	i	-1	1	-3	4
O=C(NCCCN1CCN(C2CCCCC2)CC1)Nc1ccccc1C(F)(F)F	-5	-8	nt	i	11	-15	4	6
O=C(NNC(=O)c1ccccc1C(F)(F)F)c1csc(N2CCOCC2)n1	9	24	-16	i	-7	-2	-1	3
CN(C)S(=O)(=O)N1CCC(C(=O)O)(c2ccccc2)CC1	1	1	nt	i	nt	-15	3	2
CCOc1ccc(C(=O)C(C)OC(=O)CN2C(=O)NC(C)(C)C2=O)cc1 (stereo unspecified)	nt	nt	0	i	-10	6	1	4
CCc1ccc(N(C(=O)c2csnn2)C(C(=O)NC(C)(C)C)c2cccnc2)cc1 (stereo unspecified)	6	-1	3	i	-2	nt	1	3
